Bioassay records deposited in PubChem by ICCB-Longwood Screening Facility, Harvard Medical School.
CapD inh = Bacillus anthracis CapD inhibitors, primary screen, biochemical, fluorescence intensity | purified CapD enzyme, fluorescence intensity read-out; hits give low values; some hits fall short of the stated cut | CapD gamma-glutamyltranspeptidase (Bacillus anthracis Ames Ancestor) | z-score (no concentration beside the values) | 0.23% of 140,000 active;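 active = z-score under -4 in either of two replicates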;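 note: stock transfer was 100 nL into about 40 µL; score is relative to mean and spread of the plate; one replicate is shown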
AID504770 = growth inhibition of E. coli YBA685, primary screen, V. cholerae RctB inhibitors; E. coli YBA685 rctB-dependent plasmid, OD600 growth, 3 h; hits give low values; z-score (concentration not given with the values); 0.27% of 130,000 active; AID 504770, 2011;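 active = z-score under -2 on both plates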;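 note: wells of about 30 µL received 100 nL stock; score is relative to mean and SD of the test wells; the first replicate is given; strong numbers were not always called active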
* = called active by the depositor; i = inactive; x = not tested or not shown.

SMILES	CapD inh	AID504770
CC1=C(C(=O)Nc2ccc(Br)cn2)C(c2cccc(Cl)c2)C2=C(CCCC2=O)N1 (centres undefined)	18	x
CC(C)(C)S(=O)(=O)c1cnc(-c2ccncc2)nc1N	-0.42	x
Cc1nnc2c(Nc3ccc(I)cc3)nc3nonc3n12	-0.46	x
Cc1nc2c3ccccc3nc(NN3C(=O)CCC3=O)n2n1	0.05	-0.65
COc1ccc(-c2cc(C(=O)NCCN3CCCCCC3)[nH]n2)cc1	-0.065	0.3
Cc1c(C=C2C(=O)c3ccccc3C2=O)cc(C#N)n1C	-0.31	-0.65
COc1ccc(OCCn2cnc3ccccc32)cc1	x	0
Cc1cc(=O)oc2cc(OCc3ccccc3F)ccc12	10	0.15
COc1ccccc1C(=O)CSc1ccccn1	-0.15	0.85
O=C(/C=C/c1cc2c(cc1Br)OCO2)Oc1cccc(F)c1	6	x
CC(=O)c1ccc(OCc2c(F)cccc2Cl)cc1	-0.11	x
COc1ccc(C2C(C#N)=C(N)Oc3c2c(C)nn3-c2ccc(C)cc2)cc1 (centres undefined)	-0.15	x
COc1cc(/C=C2\C(=O)NC(=S)N(c3ccc(C)cc3)C2=O)cc(Br)c1O	-1.8	x
CSc1nc(Cl)c2c(n1)N(c1ccc(C(C)(C)C)cc1)CC2	-0.2	x
O=C(CC12CC3CC(CC(C3)C1)C2)Nc1cccc(-c2nn3cnnc3s2)c1	x	-0.05
O=C(O)CSc1c2c(nc3cc(C(=O)Nc4cccc(C(F)(F)F)c4)ccc13)CCCC2	59	-0.9
COc1ccc(NC(=O)c2sc3nc(C)nc(N(C)c4ccc(C(C)C)cc4)c3c2C)c(OC)c1	0.21	0.45
CC(C)OC12Oc3ccccc3C=C1N1CCC2CC1 (centres undefined)	x	0.15
CC(C)Oc1ccc(-c2nn(-c3ccccc3)cc2/C=C(\C#N)S(=O)(=O)c2ccccc2)cc1	0.06	0.7
O=C(NC(=S)NCc1cccnc1)c1ccccc1	-0.18	x
COc1cc(Br)cc2cc(-c3nc(-c4nonc4N)no3)c(=O)oc12	-0.33	0.15
c1ccc(CN2CCC(=NNc3nncc4ccccc34)CC2)cc1	x	-0.8
COc1cc(OC)nc(C(c2ccccc2)N2CC(C)OC(C)C2)n1 (centres undefined)	-0.62	x
Nc1c(C(=O)Nc2ccc(F)cc2)sc2nc3c(c(-c4ccco4)c12)CCCC3	-0.02	x
CC(=O)N1CCC(c2nc(-c3cccs3)no2)CC1	-0.32	-0.65
CCCCN1CCc2c([nH]c3c(C)cccc23)C1=O	32	-0.85
Cc1cccc(CCCOCCOC(=O)N2CCC3(CC2)C(=O)NCN3c2ccccc2)n1	0.4	x
O=C1Nc2ccc(S(=O)(=O)Oc3ccc(OCc4ccccc4)cc3)c3cccc1c23	0.93	x
Cn1ncc(Br)c1N1C(=O)CCC1=O	0.21	0.35
CCc1ccc(-c2nn(Cc3ccccc3)cc2CN2CCN(CC(=O)N3CCOCC3)CC2)cc1	x	-0.6

Of the compounds above, 3 have a thiophene ring, fused or not:
SMILES	CapD inh	AID504770
COc1ccc(NC(=O)c2sc3nc(C)nc(N(C)c4ccc(C(C)C)cc4)c3c2C)c(OC)c1	0.21	0.45
Nc1c(C(=O)Nc2ccc(F)cc2)sc2nc3c(c(-c4ccco4)c12)CCCC3	-0.02	x
CC(=O)N1CCC(c2nc(-c3cccs3)no2)CC1	-0.32	-0.65

The main list resumes; the 5 compounds before the break are reprinted first.
SMILES	CapD inh	AID504770
CCCCN1CCc2c([nH]c3c(C)cccc23)C1=O	32	-0.85
Cc1cccc(CCCOCCOC(=O)N2CCC3(CC2)C(=O)NCN3c2ccccc2)n1	0.4	x
O=C1Nc2ccc(S(=O)(=O)Oc3ccc(OCc4ccccc4)cc3)c3cccc1c23	0.93	x
Cn1ncc(Br)c1N1C(=O)CCC1=O	0.21	0.35
CCc1ccc(-c2nn(Cc3ccccc3)cc2CN2CCN(CC(=O)N3CCOCC3)CC2)cc1	x	-0.6
Cc1ccc(/C=C2\C(=O)N(c3ccccc3C)C(=O)c3ccccc32)o1	x	-1.1
COc1ccccc1CCOC(=O)NCC1CCCCC1O (centres undefined)	-0.02	x
Cc1ccc2[nH]cc(CCNC(=O)OCc3cccc(OCc4ccccc4)c3)c2c1	0.01	x
Cc1cc(C)c(C#N)c(SCc2nc3cc([N+](=O)[O-])c([N+](=O)[O-])cc3[nH]2)n1	-0.29	x
O=c1[nH]c2ccc(Cl)cc2c(-c2ccccc2)c1N1CCCC1	0.33	0.4
Cc1cc(NC(=O)c2ccccc2F)cc(C)c1OCC(=O)N1CCOCC1	-0.09	1.4
COc1ccc(CCNC(=O)c2ccc3c(=O)n(CC4CCCO4)c(=S)[nH]c3c2)cc1OC (centres undefined)	0.59	2.3
CSc1nc(N)nc(-c2cccnc2)n1	0.45	x
COC(=O)C1=C(C)NC(SCC(=O)Nc2c(C)cc(C)cc2C)=C(C#N)C1c1ccccc1Cl (centres undefined)	7.9	x
CCCCC1(C)OC(=O)C(=Cc2ccc(O)cc2)C(=O)O1 (centres undefined)	-0.57	0
COc1cccc(-n2nnnc2S(=O)(=O)Cc2ccccc2)c1	0.35	-0.35
CC1Cc2ccccc2N1CC(=O)Nc1ccccc1Cl (centres undefined)	x	-1.2
CC1CCC(N2CCN(Cc3cccc(F)c3)CC2)CC1 (centres undefined)	0.26	-0.95
COC(=O)c1ccc(-c2nc3ccccc3[nH]2)cc1	x	-1.1
COc1ccc(-n2c(-c3ccccc3)cn3c4c(=O)n(C)c(=O)n(C)c4nc23)cc1OC	0.12	x
COC(=O)c1n[nH]n(-c2cc(Cl)cc(Cl)c2)c1=O	-0.17	0.1
CCCCOc1ccc(Sc2nc(C)cc(C)n2)cc1	-0.25	x
COc1cc(-c2nnc(SCc3cc(=O)oc4ccc5ccccc5c34)o2)cc(OC)c1OC	x	-0.35
C=CCNC(=O)c1cc2c(=O)n3ccccc3nc2s1	x	0.2
CNS(=O)(=O)c1ccc2oc3ccc(S(=O)(=O)NC)cc3c2c1	0.12	0.05
NC(CO)(CO)COCc1ccccc1	0.24	-0.05
Fc1ccc(CN2CCN(Cc3ccccc3)CC2)cc1	-0.07	-0.95
O=c1oc2ccc(Cl)cc2c(=O)n1-c1cccc(C(F)(F)F)c1	-0.095	-0.2
Cc1[nH]c2ccccc2c1CN1CCN(c2ccc(F)cc2)CC1	0.48	0.25
CCCc1nc(C(C#N)c2ccc(F)cc2)c2nnn(Cc3ccccc3)c2n1 (centres undefined)	x	0
Cc1nc(-c2noc(-c3ccc(C(F)(F)F)cc3)n2)cs1	-0.55	0
Clc1ccc(Nc2ncnc3c2cnn3-c2ccccc2)cc1	0.24	-1.1
N#CC1=C(SCC(N)=O)NC2=C(C(=O)CCC2)C1c1ccco1 (centres undefined)	x	-0.7
CS(=O)(=O)c1ccc2nc(NC(=O)C3CC3)sc2c1	i	-0.5
Cc1c(NS(=O)(=O)c2cccc(C(=O)N3CCN(c4ccccc4F)CC3)c2)c(=O)n(-c2ccccc2)n1C	x	0.45
CC(C)(C)c1cc(CCC(=O)NN)cc(C(C)(C)C)c1O	-0.05	0.4
COc1cccc(/C=C2/SC(=O)N(C)C2=O)c1O	x	-0.2
O=C(N/N=C/c1ccc([N+](=O)[O-])cc1)c1ccoc1-c1ccccc1O	-2.3	x
O=C(NC1C2CC3CC(C2)CC1C3)c1cccnc1Cl (centres undefined)	-0.62	-1.4
N#Cc1c(=O)c2nc(NCCc3ccccc3)ncc2n2c(=O)c3cc(Br)ccc3[nH]c12	x	-1.2
CCS(=O)(=O)N1Cc2ccccc2CC1C(=O)N1CCN(S(=O)(=O)c2ccc(C)cc2)CC1 (centres undefined)	x	1
COc1cccc(NC(=O)Cn2c(C)cc(C)c(C#N)c2=O)c1	0.055	-0.35
CC(NS(=O)(=O)c1ccccc1)C(c1cccs1)N1CCOCC1 (centres undefined)	-0.055	-1
O=C(COC(=O)/C=C/c1cccs1)Nc1ccccc1	-0.73	-0.15
CCC(C)/C(=N\O)c1ccccc1 (centres undefined)	0.73	0.35
COC(=O)c1ccc(C2Oc3ccc(Cl)cc3C3CC(c4cccc(OC)c4)=NN32)cc1 (centres undefined)	-0.65	x
CCOC(=O)c1ccc(Cn2c3ccc(Br)cc3c3nc4cc(C)c(C)cc4nc32)o1	0.48	x
Cc1ccc(N2C(=O)c3ccccc3C2=O)cc1	8.1	0
CCOC(=O)c1c(CSc2cccs2)n(C)c2cc(Br)c(O)c(CN(C)C)c12	-0.33	x
CCn1c(SCC(=O)N(C)Cc2ccccc2)nc2ccccc21	x	1.7
Cc1ccc(N(C(=O)Cn2nnc3ccccc32)C(C(=O)NCc2ccco2)c2cccnc2)cc1C (centres undefined)	x	-0.15
CC1CCC(C(C)C)C(OC(=O)CSC#N)C1 (centres undefined)	0.11	-0.65
CN(C)c1c(N)c(=O)oc2ccccc12	-2	0.35
O=C1C[N+]2(CC(=O)N3c4ccccc4Sc4ccccc43)CCC1CC2	-0.25	x
Cc1c(C(=O)c2ccc3c(c2)OCCO3)oc2ccc(Cl)cc12	x	3.2
CC1CC(=O)N(CC(N)=O)c2ccccc2S1(=O)=O (centres undefined)	-0.8	-0.25
CCC(C)C12CN3CCN(CC(C)(C3)C1O)C2 (centres undefined)	0.015	1.6
CN(C)C(=O)COC(=O)c1ccccc1C(=O)c1ccccc1	x	0.05
Oc1c(Cl)cc(Cl)cc1C=Nc1ccc(Cl)cn1	0.82	x
Cc1ccc2c(CC(=O)NCC(=O)OCc3ccccc3)coc2c1	x	-0.5
COc1ccc(CCNC(=O)CCn2c(SCC(=O)c3ccc(O)c(O)c3)nc3ccccc3c2=O)cc1OC	-0.61	x
COc1ccccc1CNS(=O)(=O)c1ccc(Br)cc1	1.3	x
Cn1ccnc1SCC(=O)NC1CCCc2ccccc21 (centres undefined)	x	-0.25
O=C(O)CCC(=O)NC1CCCCNC1=O (centres undefined)	-0.42	0.35
COc1cc(SC)ccc1C(=O)NCC#N	x	1.9

Next part:
SMILES	CapD inh	AID504770
N#Cc1c(Nc2ccccc2)sc2c(N)nc(N)nc12	-1.6	-0.3
O=c1c2c3c(sc2nc2n1CCC2)CCCC3	0.85	x
O=C(O)Cc1sc(-c2ccc(Cl)cc2)nc1O	0.49	-0.45
O=C(NNc1cccc(Cl)c1)C(c1ccccc1)c1ccccc1	0.08	x
COCCn1c(N)c(-c2nc3ccccc3[nH]2)c(O)c1N=Nc1cc(OC)c(OC)c(OC)c1	x	0.95
O=C(Nc1ccc(Cl)cc1)C(F)(F)F	x	-0.3
O=C1CCC2(C(=O)O)Sc3ccccc3N12 (centres undefined)	x	0.05
Cn1c(=O)c(-[n+]2ccccc2)c([O-])c2ccccc21	-0.14	0.45
O=C1c2ccccc2C(=O)c2cc(S(=O)(=O)NCCCCc3ccccc3)ccc21	-0.23	x
O=C(Cc1ccc2c(c1)OCCO2)Nc1ccc(OC(F)(F)F)cc1	x	0.7
NS(=O)(=O)c1ccc(-c2ccc(/C=N/O)o2)cc1	114	x
Cc1cc2c(=O)n(CC(=O)Nc3ccc(F)cc3F)cnc2s1	0.04	-0.6
CCCCN(CC)Cc1c(O)ccc2c(-c3ccccc3)cc(=O)oc12	2.6	0.6
CCOC(=O)N1CCC(NC(=O)CN2C(=O)CSc3nc(C)cc(C)c32)CC1	-0.77	-0.9
Cc1c(C)c(C)c(CSCC(=O)N/N=C/C=C/c2ccccc2)c(C)c1C	1.1	x

Pulled by compound from above:
SMILES	CapD inh	AID504770
c1ccc(CN2CCC(=NNc3nncc4ccccc34)CC2)cc1	x	-0.8
CCCCN1CCc2c([nH]c3c(C)cccc23)C1=O	32	-0.85

(next part)
SMILES	CapD inh	AID504770
Cc1cc(C)c(C#N)c(SCc2nc(COc3cccc(C(F)(F)F)c3)no2)n1	45	0.15
O=C(Cn1cc(/C=C2\SC(=Nc3ccccc3)N(Cc3ccco3)C2=O)c2ccccc21)N1CCOCC1	0.24	0.6
COc1ccc(CCCOC(=O)Nc2ccc(NC(C)=O)cc2)cc1	-0.55	x
O=C(CSCc1nc2c(nnn2Cc2ccc(F)cc2)c(=O)[nH]1)NC1CCCCCC1	-0.58	-0.35
Cc1c(/C=N/O)c(=O)n(-c2ccccc2)n1C	0.005	x
CC1(c2ccccc2)CC(c2ccccc2)=Nc2ccccc2N1 (centres undefined)	-0.96	x
COc1ccc(C(=O)c2cnc(C(C)C)n2C)cc1	-0.21	2
N#Cc1ccc(-c2ccc(Cl)cc2)n(Cc2c(Cl)cccc2Cl)c1=O	3.2	x
CC1=C(c2ccc(C)c(C)c2)S(=O)(=O)NC1=NCC(=O)NCCc1ccco1	-1	1.4
Cc1ccc(-c2cnn(Cc3ccccc3Cl)c2)cc1	-0.41	x
CCOC(=O)C1=C(N)OC2=C(C(=O)CC(c3ccccc3)C2)C1c1ccc(OC)cc1 (centres undefined)	0.1	x
CCOC(=O)N1CCN(S(=O)(=O)c2cc(OC)ccc2OC)CC1	0.54	-0.65
O=C(c1ccc2snnc2c1)N(CCO)c1ccccc1	-0.38	1
N#Cc1c(C(F)(F)F)cc(=O)n2c1[nH]c1ccccc12	x	-0.2
CC1=NN(c2ccccc2)C(=O)C1/C=C1\C(=O)NC(=O)N(c2cc(C)cc(C)c2)C1=O (centres undefined)	-1	x
COc1ccc(C(=O)NNC(=S)Nc2ccc(Cl)cc2C)cc1	0.15	x
CCc1ccc(C=C2C(=O)N(C)C(=O)N(C)C2=O)cc1	-0.11	-0.8
Cc1cc(C)n2nc(SCC(=O)N3CCC(C)CC3)nc2n1	x	-1.6
COc1ccc(C(=O)CCN2CCC(C)CC2)cc1	-1.1	-1.8
